T cruzi repl – inhibitors of intracellular T. cruzi growth, primary screen, luminescence, NIH3T3 host cells | inhibition, % (test concentration not listed) | T. cruzi beta-gal in NIH3T3, 90 h | AID 1885, 2009 | hit rate 1.4% among 300,000;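 active = mean inhibition across valid replicates above about 55%, limit read from the data; inconclusive = mean below that limit but half or more replicates reach it; inactive = mean below it, under half of replicates reach it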;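 also: signal also drops with host cell toxicity which is not excluded here; 0% = plate median of DMSO wells and 100% = zero luminescence signal; higher percent means less beta-gal luminescence so fewer parasites; stock transfer was 50 nL into about 50 µL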
RanGTP-Imp inh – inhibitors of RanGTP-importin-beta interaction, primary screen, biochemical, FRET, CFP-Ran, YFP-importin-beta, homogeneous. hit rate 1.1% among 300,000. inhibition, % (no concentration beside the values). cell-free CFP-Ran/YFP-importin-beta FRET ratio. AID 2216, 2009. Ran GTPase (GTP-bound) - importin-beta complex;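 active = most replicates above 15%; inconclusive = exactly half above 15%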;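 also: 0% = DMSO wells and 100% = Ran loaded with GDP instead of GTP; wells of about 40 µL received 100 nL stock; the first replicate is given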
Beta apoptosis – inhibitors of cytokine-induced beta cell apoptosis, primary screen, luminescence. INS-1E cytokine-induced death, ATP luminescence, 48 h; percent of positive-control rescue, neutral wells zero. AID 435005, 2010. protection from apoptosis, % (test concentration not listed). hit rate 0.8% among 300,000;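 active = all replicates at 75% or more, or half of them and the mean; inconclusive = half reach 75% but not the mean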;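 also: 0% = cytokine-treated negative control wells and 100% = positive control rescue; higher means more ATP so stronger rescue from cytokine killing; wells of about 40 µL received 100 nL stock; the first replicate is given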
LANA-H2B inh – blockers of LANA interaction with H2A/H2B – biochemical, FP readout, HTS, primary screen | Protein LANA1 (Human herpesvirus 8 type P (isolate GK18)), Q9QR71 | cell-free LANA-H2A/H2B peptide, fluorescence polarization | inhibition, % (no concentration beside the values) | hit rate 0.6% among 320,000; in the data active = inhibition mostly above about 10%, no sharp cut-off; inactive = mostly below about 6.7%;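 also: stock transfer was 7.5 nL into about 10 µL; 0% = median of vehicle wells and 100% = median of positive control wells; one replicate is shown; the record names a cut of 25% in any replicate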
Target sequence (Q9QR71 whole entry, looked up): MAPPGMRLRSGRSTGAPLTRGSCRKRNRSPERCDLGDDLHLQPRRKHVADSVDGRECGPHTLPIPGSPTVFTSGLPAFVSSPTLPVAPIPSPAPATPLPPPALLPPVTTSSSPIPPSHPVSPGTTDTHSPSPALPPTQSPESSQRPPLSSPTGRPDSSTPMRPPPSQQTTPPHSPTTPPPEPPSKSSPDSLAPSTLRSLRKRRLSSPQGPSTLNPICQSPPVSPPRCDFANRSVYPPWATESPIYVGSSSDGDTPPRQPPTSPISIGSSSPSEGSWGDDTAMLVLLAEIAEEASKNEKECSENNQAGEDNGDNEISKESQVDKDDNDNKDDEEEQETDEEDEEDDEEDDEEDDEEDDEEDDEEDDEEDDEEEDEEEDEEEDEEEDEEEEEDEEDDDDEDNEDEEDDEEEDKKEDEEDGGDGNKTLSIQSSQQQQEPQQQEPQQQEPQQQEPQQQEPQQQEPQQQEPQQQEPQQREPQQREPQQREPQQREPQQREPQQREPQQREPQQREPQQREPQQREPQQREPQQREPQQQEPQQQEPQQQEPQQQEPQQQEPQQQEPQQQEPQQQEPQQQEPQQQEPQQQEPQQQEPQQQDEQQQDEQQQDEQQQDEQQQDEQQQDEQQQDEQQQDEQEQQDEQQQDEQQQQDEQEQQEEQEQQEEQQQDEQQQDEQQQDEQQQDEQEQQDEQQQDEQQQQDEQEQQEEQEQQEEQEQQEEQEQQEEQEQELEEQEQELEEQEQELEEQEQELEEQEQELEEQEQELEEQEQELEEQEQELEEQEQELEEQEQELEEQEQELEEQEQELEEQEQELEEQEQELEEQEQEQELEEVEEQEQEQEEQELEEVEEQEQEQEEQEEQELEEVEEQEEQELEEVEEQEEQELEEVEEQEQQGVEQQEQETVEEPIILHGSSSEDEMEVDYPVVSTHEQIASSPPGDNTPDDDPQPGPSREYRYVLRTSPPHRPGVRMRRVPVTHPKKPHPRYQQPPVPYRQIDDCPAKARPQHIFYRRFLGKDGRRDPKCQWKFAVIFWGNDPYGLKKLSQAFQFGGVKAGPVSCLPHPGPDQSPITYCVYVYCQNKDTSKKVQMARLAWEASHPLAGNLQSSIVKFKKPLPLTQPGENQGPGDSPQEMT
Calb FLC – C. albicans growth inhibition with fluconazole, primary screen, CaCi-2 strain, Alamar Blue fluorescence; growth inhibition, % (test concentration not listed); C. albicans CaCi-2 (fluconazole-resistant clinical isolate) + fluconazole, 48 h; hit rate 0.57% among 300,000;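 active = most replicates above 75%; inconclusive = exactly half above 75%; inactive = most below 75%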;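 also: all wells also contain fluconazole at 8 µg/ml as a sub-toxic cotreatment; 0% = median of DMSO wells and 100% = median of geldanamycin control wells; wells of about 8 µL received 7.5 nL stock; the first replicate is given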
Beta2AR agonist – beta2AR agonists driving receptor internalization, primary screen, cell-based, FAP fluorogen, flow cytometry. Beta-2 adrenergic receptor (Homo sapiens), P07550. Am2.2-beta2AR cells; reference of the scale not given here. response, % (test concentration not listed). hit rate 0.43% among 340,000. AID 504454, 2011;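 active = response above a set limit, near 3 SD of response in nonfluorescent compounds, cut at about 42% in these data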;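 also: stock transfer was 100 nL into about 11 µL; a reference agonist was the positive control; negative values mostly stem from fluorescent compounds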
A1 inh – caspase 3/7 activation in MEF A1-2A-BIM cells, primary screen, A1 inhibitor project, cell-based, luminescence, HTS | hit rate 0.066% among 330,000 | Caspase-Glo 3/7 luminescence, 3 h; percent of clofoctol response, vehicle zero | AID 2462, 2010 | caspase activation, % (no concentration beside the values);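 active = over half of replicate activation scores above 10%, or exactly half above 10 with the replicate mean above 10; inconclusive = replicate mean below 10 yet half the replicates above 10; inactive = over half of replicates below 10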;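 also: wells of about 30 µL received 50 nL stock; many hits fall short of the cut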
UCH37 inh – inhibitors of human UCH37 deubiquitinase, primary screen, biochemical, Ub-AMC cleavage, fluorescence; hit rate 0.33% among 330,000; purified proteasome/UCH37; Ubiquitin carboxyl-terminal hydrolase isozyme L5 (Homo sapiens), Q9Y5K5; inhibition, % (test concentration not listed);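 active = mean of two replicates above 20%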;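 also: 0% = compound-free wells with enzyme and 100% = wells lacking proteasome; stock transfer was 100 nL into about 20 µL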
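Schedule: 30 min plus 25 min, room temperature / Material: human UCH37 within purified proteasomes / Technique: AMC fluorescence intensity at 355/460 nm / Buffer or medium: pH 7.4 Tris-HCl (50 mM) with ovalbumin, ATP-MgCl2, DTT / Controls: wells without proteasome as full block, compound-free enzyme plus substrate as uninhibited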
* hit, by the source's call; ? = inconclusive; · = no result given. Random draw from the library; overall some 4.3% were active at least once.

SMILES | T cruzi repl | RanGTP-Imp inh | Beta apoptosis | LANA-H2B inh | Calb FLC | Beta2AR agonist | A1 inh | UCH37 inh
O=C(Nc1ccc2c(c1)OCO2)C1CCCCN1S(=O)(=O)c1ccccc1 (configuration not stated) | -5.1 | 5.0 | · | -0.8 | -5.0 | 7.7 | -0.4 | -0.5
C[C@H](NC(=O)C1CCN(S(=O)(=O)c2ccccc2)CC1)C(=O)NCc1ccco1 | 0.0 | 4.0 | -7.9 | 3.2 | 4.6 | 6.9 | -0.9 | 2.0
COc1nc(C)cc(C)c1S(=O)(=O)c1ccc(Cl)cc1 | 8.8 | -2.1 | -3.2 | 0.2 | 0.5 | -15.3 | 0.0 | 0.4
Cc1ccc(NC(=O)CC2C(=O)OCC3CCCCN32)cc1Cl (configuration not stated) | -9.5 | -2.6 | -8.8 | -3.7 | -1.0 | 1.8 | 0.0 | 3.7
COC(=O)c1ccc(NS(=O)(=O)c2cc(-c3cc(C)no3)ccc2OC)cc1 | -18.5 | 2.0 | 16.9 | -2.4 | 87.6* | -20.8 | -0.7 | 5.7
Fc1ccc(OCc2nn[nH]n2)c(F)c1 | -6.7 | -1.3 | -2.5 | 0.1 | -0.6 | 5.7 | 1.3 | -0.6
COc1ccc(-c2noc(=O)n2Cc2ccc(C#N)cc2)cc1 | -11.1 | ? | -7.8 | 1.9 | -7.8 | 10.1 | 0.4 | -0.8
Cc1c(C(=O)N2CCCCC2)c(S(=O)(=O)N2CCN(c3ccc(F)cc3)CC2)c(C)n1C | 4.4 | 0.3 | -3.0 | 3.8 | -1.4 | 8.3 | -0.6 | 1.6
COc1ccc(C(=O)/C=C/Nc2ccc(S(=O)(=O)Nc3cccc(C(C)=O)c3)cc2)cc1 | 6.6 | 0.8 | 58.2 | 1.0 | -7.5 | 10.1 | -0.5 | ·
COc1ccc(Cl)cc1NC(=O)N(C)Cc1c(C)nn(C)c1C | 9.0 | 3.2 | -5.1 | -5.0 | -3.8 | -7.0 | 0.7 | 5.2
Cc1ccc(/C(N)=N/OC(=O)N2CCOCC2)cc1 | 55.1* | 2.8 | · | -2.8 | 1.0 | 4.0 | 0.4 | -2.6
O=C(CNCC1CCCO1)Nc1ccc([N+](=O)[O-])cc1C(=O)Nc1ccccc1F (configuration not stated) | -7.6 | 4.2 | -3.6 | -1.1 | 11.1 | -1.1 | 1.2 | 6.0
CCN(C[C@H]1N[C@@](Cc2ccccc2)(C(=O)OC)[C@H]2C(=O)N(C)C(=O)[C@@H]12)C(=O)Nc1ccc(C(F)(F)F)cc1 | · | · | -6.9 | -300.3 | · | -0.3 | 0.2 | 1.1
O=C(c1cc2ccccc2cc1O)N1CCCC(C(F)(F)F)C1 (configuration not stated) | -4.2 | -0.1 | -2.7 | -2.3 | 13.0 | 9.9 | 1.4 | -2.7
CC(=O)c1sc(NC(=O)c2cc3c(C)nn(-c4ccccc4)c3s2)nc1C | -6.5 | 7.3 | -3.6 | -3.3 | 6.4 | 9.8 | -0.7 | -94.8
CC(C)=CC(=O)Nc1c(C)cc(C)cc1Cl | -24.3 | 4.1 | -7.6 | 9.7 | 30.3 | -5.8 | -0.7 | 3.4
O=C1CC(C(=O)N2CCN(S(=O)(=O)c3cccc(F)c3)CC2)CN1Cc1ccccc1Cl (configuration not stated) | -1.7 | 2.3 | -4.0 | 1.6 | -6.0 | 1.0 | -0.4 | 2.1
CN(C)C(=O)c1ccc(-n2nc(C(F)(F)F)c3c2CCCC3)cc1 | 8.1 | -1.3 | 2.1 | 2.9 | -6.1 | -5.0 | 1.5 | -4.4
COc1ccccc1CN1CC(C(=O)NC2CCCCC2)CC1=O (configuration not stated) | -2.6 | -1.7 | 2.8 | 7.8 | -0.6 | 3.0 | 0.0 | 6.1
COc1ccc(S(=O)(=O)N2CCCC2CNC(=O)C(=O)Nc2cccc(F)c2)cc1 (configuration not stated) | 16.9 | ? | 1.6 | -2.0 | 10.4 | -14.3 | -0.3 | ·
Cc1cc(C(=O)NC(C)C2CCCO2)cs1 (configuration not stated) | -32.4 | 2.1 | 5.3 | -7.8 | 6.4 | -1.4 | 0.0 | 6.1
COc1ccc2c(CC(=O)N[C@@H](Cc3ccccc3)C(=O)O)cc(=O)oc2c1C | 3.9 | 2.5 | -0.1 | -1.5 | -6.3 | 5.5 | 0.4 | -435.5
Cc1ccnc(NC(=O)Nc2ccc(Br)cc2Cl)c1 | 5.7 | 1.6 | 0.7 | 3.7 | -3.5 | -63.6 | -4.5 | 0.1
Nc1nonc1-n1nnc(C(=O)N/N=C/c2c(Cl)cccc2Cl)c1CSC1=NCCS1 | -6.6 | 0.6 | 0.3 | -1.8 | -14.5 | -0.2 | 0.4 | ·
Cc1ccc(NC(=O)NCC2CCN(Cc3cc(C)ccc3Cl)CC2)c(C)c1 | 29.4 | -1.2 | -3.5 | 4.9 | -0.6 | 4.8 | 0.5 | 2.6
Cc1ccc(C(=O)NCC(=O)NCC(c2cccs2)N(C)C)cc1C (configuration not stated) | · | · | -11.6 | 3.3 | · | -2.4 | 0.8 | -0.6
O=C(O)CN1CCN(Cc2ccccc2F)C1=O | -13.1 | 0.2 | -5.2 | 3.4 | -0.8 | -0.7 | 0.5 | -2.4
Cc1ccc(C)c(NS(=O)(=O)c2ccc(OCC(=O)NCc3ccco3)cc2)c1 | 0.2 | 2.5 | -8.8 | 6.2 | 32.9 | 3.0 | 0.0 | 4.3
O=c1c2ccccc2nc(SCc2ccc([N+](=O)[O-])cc2)n1-c1ccc(Cl)cc1 | 23.2 | 1.4 | -7.7 | 1.6 | -11.0 | 0.9 | 0.5 | 0.3
COc1ccc(N=c2cc(-c3ccc(OC)cc3)oc3ccccc23)cc1 | 39.6 | ? | 22.5 | · | 13.5 | -0.3 | 0.6 | 2.0
O=C(NCCc1ccccc1)c1c(F)c(F)c(F)c(F)c1F | -7.1 | 0.8 | -1.0 | 0.9 | -4.9 | -3.8 | 0.2 | 0.3
COc1ccc(-c2noc(N3CCC(C(=O)Nc4ccc(F)cc4F)CC3)n2)cc1 | 10.3 | 1.8 | 3.7 | 7.4 | -2.2 | 2.5 | -0.2 | 7.8
COc1ccc(OC)c(Nc2nc(NCCCN(C)C)nc(N)c2[N+](=O)[O-])c1 | 10.8 | 2.9 | 7.7 | -12.9 | 3.6 | -4.6 | 1.1 | 12.9
COc1cc(CCC(C)NCc2ccccc2)ccc1O (configuration not stated) | -2.3 | 1.0 | -2.1 | 2.1 | 4.4 | -3.4 | 0.6 | 3.4
O=C(c1oc(=O)c2ccccc2c1-c1ccccc1)N1CCC(O)CC1 | -16.7 | 1.8 | -1.2 | 2.2 | 3.4 | 4.0 | -0.3 | 2.3
Cc1[nH]c(=O)[nH]c(=O)c1S(=O)(=O)N1c2ccc(F)cc2CCC1C (configuration not stated) | -14.7 | 2.4 | -4.7 | -7.4 | 4.4 | 2.6 | -0.4 | 4.8
CCC1CN(C(=O)Nc2cccc(C)c2)c2cc(C)ccc2O1 (configuration not stated) | 3.6 | 5.8 | -13.2 | 3.4 | 0.0 | 2.8 | 0.1 | -0.1
Brc1ccccc1CN1CCC(Cc2ccccc2)CC1 | 26.9 | -1.6 | -0.4 | -3.5 | -10.1 | 4.8 | 0.5 | 1.5
Cc1ccc2c(SCC(=O)NCc3ccco3)nc(-c3ccc(F)cc3)nc2c1 | -5.2 | -0.6 | 6.8 | -6.9 | -30.1 | -14.7 | -0.2 | 2.4
NS(=O)(=O)c1ccc(CCNC(=O)CCNC(=O)c2ccco2)cc1 | -17.5 | ? | -6.3 | 2.3 | -4.6 | -3.2 | 0.0 | 3.8
COc1cc(C2C(C#N)=C(N)N(N(C)C)C3=C2C(=O)CC(C)(C)C3)cc(OC)c1OC (configuration not stated) | 3.5 | 3.1 | -3.1 | 4.8 | 4.0 | -0.3 | 1.7 | 3.9
O=S1(=O)CC=C(CSC(=S)NC2CCS(=O)(=O)C2)C1 (configuration not stated) | -9.0 | · | -11.0 | 5.3 | 28.9 | 17.7 | 1.4 | 5.5
O=c1cc(CO)oc(C(Nc2ccccn2)c2ccsc2)c1O (configuration not stated) | -43.4 | 1.0 | -6.9 | 7.4 | -7.5 | · | -0.9 | ·
Cc1ccc(C)c(NC(=O)c2cc3c([nH]c4ccccc43)c(C)n2)c1 | 0.1 | 1.1 | -1.3 | -1.7 | 0.0 | 1.1 | -0.1 | -2.5
CCOC(=O)COc1cc(Br)c(C2NC(=O)NC(C)=C2C(C)=O)cc1OCC (configuration not stated) | 5.8 | -1.5 | -1.8 | 0.9 | -1.1 | 6.1 | -0.3 | 3.7
CCOc1cnc(-c2c(-c3c(F)cccc3Cl)noc2C)o1 | -6.2 | 2.6 | -4.0 | -4.5 | 11.5 | -12.4 | 0.5 | 0.4
CCCC(CCC(=O)Nc1nccs1)C(=O)O (configuration not stated) | -5.9 | 3.5 | · | 0.1 | -1.4 | 4.1 | -0.1 | 4.0
O=C(O)c1cccc(S(=O)(=O)Nc2ccc3c(c2)OCO3)c1 | 0.0 | ? | 0.8 | 1.8 | -2.7 | 0.3 | 0.1 | 2.1
COc1ccc(/C=N/Nc2nc(-c3cccnc3)nc3ccccc23)cc1OC | -1.1 | 3.1 | 1.8 | -0.9 | -2.7 | 17.8 | -4.3 | ·
CCC(=O)Nc1nc2ccccc2n1Cc1ccccc1Cl | -1.6 | 0.4 | 16.3 | 5.1 | 36.3 | 7.1 | 0.7 | 5.0
COc1ccc(CN(C)C(=O)c2cccc(S(=O)(=O)N3CCN(c4ccccc4)CC3)c2)c(OC)c1OC | 17.1 | 2.8 | · | 1.9 | 5.3 | 0.8 | 0.0 | 1.5
COc1ccc(N(C)C(=O)Cc2c(C(=O)O)[nH]c3ccccc23)c(OC)c1 | -18.5 | -1.5 | -3.2 | 7.0 | 43.8 | -1.9 | 0.5 | 3.3
O=C(Cc1ccccc1[N+](=O)[O-])NC1CC1 | -16.1 | 1.3 | 1.9 | 3.7 | 4.2 | -0.8 | -0.3 | 5.0
COc1cc(/C=C(\NC(C)=O)C(=O)NC(C)(C)C)ccc1OC(C)=O | -12.6 | 0.4 | -6.3 | 1.9 | 2.1 | -0.3 | -0.4 | 2.6
Cc1cccc(NS(=O)(=O)c2ccc(C(=O)NCC(c3ccco3)N3CCCCC3)cc2)c1C (configuration not stated) | 29.1 | -0.8 | 6.7 | -2.9 | -0.4 | · | 0.5 | 0.4
